MT1-MMP act inh: blockers of MT1-MMP proenzyme processing, primary screen, HT1080 RFP-PRO-GFP cells, GFP/RFP fluorescence; Matrix metalloproteinase-14 (Homo sapiens), P50281; GFP/RFP ratio fluorescence, overnight; percent of plate control window, DMSO zero; GFP/RFP ratio change, % at 20 µM; 0.061% of 360,000 active; AID 651647, 2012;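 active = GFP/RFP ratio change of at least 30% with cell ATP level not reduced by more than half and red fluorescence within 50% of control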; note: strong numbers were not always called active
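Assay system: HT1080 RFP-PRO-GFP cells | Dosing: 20 µM single dose, 1% DMSO | Incubation: Cells overnight before dosing, compound overnight, 37 °C, 5% CO2 | Evaluation: GFP/RFP fluorescence ratio | Control set: DMSO-only wells and HT1080 RFP-L50D-GFP cell wells as references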
Env fusion inh: inhibitors of HIV-1 Env-driven cell-cell fusion, primary screen, HeLa-JRFL effector, CEM21 target cells, luciferase; inhibition, % at 12.3 µM; 1.1% of 360,000 active;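 active = mean replicate inhibition score of at least 50 and every replicate individually at or above 50; inconclusive = only one of the two criteria met; inactive = mean below 50 and not all replicates reaching 50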;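 note: 0% = plate neutral controls and 100% = maraviroc near 300 nM; one replicate is shown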
MT1-MMP act inh RFP: recorded beside MT1-MMP act inh, whose call it bears; RFP signal change, %; measured here: RFP expression control read;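 0 = vehicle wells; hits needed this value within 50% of zero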
Active calls of the source: *; i = inactive; ? = inconclusive. The list is partial; count on the stated rates, not on these rows.

Values in the order: MT1-MMP act inh	MT1-MMP act inh RFP	Env fusion inh
[1] CCOc1ccc(C=NNC(=O)c2cccc3ccccc23)cc1OCC
 : 7	-12	9
[2] CCCCC[C@@H](C)N1C[C@@H](COCc2ccccc2)Oc2cc(N3CCC[C@@H]3CO)ccc2S1(=O)=O
 : -2	-10	18
[3] COc1ccc(CCNC(=O)Cc2cc3c(cc2[N+](=O)[O-])OCO3)cc1OC
 : 2	-5	-10
[4] CCOC(=O)[C@]12CCC=C1N(Cc1ccco1)C(=O)[C@H](CC(=O)N1CCC(c3ccccc3)CC1)C2
 : 2	2	12
[5] Cc1ccc(Cn2cc(CN3CC(N4CCSCC4)CS3(=O)=O)nn2)cc1 (stereo not given)
 : 2	1	0
[6] CC(C)(C)n1nnnc1C(c1ccccc1)N1CCN(c2ncc(C(F)(F)F)cc2Cl)CC1 (stereo not given)
 : -10	-23	50
[7] O=C(NC(Cc1c[nH]c2ccccc12)C(=O)O)OCC1c2ccccc2-c2ccccc21 (stereo not given)
 : 2	6	16
[8] O=C(NC1CCCC1)C(c1ccco1)N1CCC(O)(c2ccc(Cl)cc2)CC1 (stereo not given)
 : 1	2	1
[9] Cc1ccc(-c2csc(/C=C3/SC(C)C(=O)N3CC(=O)Nc3ccccc3F)n2)cc1 (stereo not given)
 : 1	-2	6
[10] O=C(CN1C(=O)NC(c2ccccc2)(c2ccccc2)C1=O)NCCc1ccc(F)cc1
 : 6	0	i
[11] CCC(C)[C@H]1CNC(=O)C(=O)N1CCCCC1CCCCC1 (stereo not given in full)
 : 4	2	38
[12] CC1C(=O)N(Cc2cn(CCC3OCCO3)nn2)CCS(=O)(=O)N1Cc1ccc(-c2ccncc2)cc1 (stereo not given)
 : 3	8	3
[13] CC1OC(CCc2cccc(Cl)c2)Cc2[nH]c(=S)[nH]c(=O)c21 (stereo not given)
 : 12	-4	-18
[14] CC(C)(C)NC(=O)C(C1CC1)n1c(=O)c(-c2ccccc2)nc2ccccc21 (stereo not given)
 : -7	0	-9
[15] CCCCc1ccc(-c2nn[nH]n2)nc1
 : 1	5	28
[16] Cc1ccccc1CN1C(=O)CN(S(C)(=O)=O)CC1(C)C(=O)NCc1ccccc1 (stereo not given)
 : -1	4	3
[17] Cc1nc2ccc(N)nc2nc1C
 : 8	-4	-9
[18] CC(C)N(C)c1ncnc2c1ncn2[C@H]1CN(Cc2ccc3c(c2)OCO3)C[C@@H](CO)O1
 : -1	2	-6
[19] O=C1Nc2ccccc2C1=Nc1ccccc1-c1ccccc1
 : 2	10	-10
[20] CCC(C)c1ccccc1N1CC(C(=O)N2CCN(S(=O)(=O)c3cccc([N+](=O)[O-])c3)CC2)CC1=O (stereo not given)
 : -1	-6	-7
[21] CCOc1ccc(CCNC(=O)COC(=O)c2[nH]c(C)c(C(C)=O)c2C)cc1OCC
 : -2	4	13
[22] Nc1nc(Sc2ccc([N+](=O)[O-])c3nonc23)c2[nH]cnc2n1
 : -105	11	-141
[23] CC(C)C[C@@H]1CC2=C(C(=O)OC(C)(C)O2)[C@H](c2ccc(Cl)cc2)O1
 : -5	-7	0
[24] CC1=C(C(=O)N2CCCCCC2)CC(CC(=O)NC2CCCC2)C(=O)N1CCC1=CCCCC1 (stereo not given)
 : 8	2	25
[25] COC(=O)c1sc(N)nc1CCNC(=O)OC(C)(C)C
 : 2	4	-1
[26] CCCCc1c(-c2ccccc2OC)ncn1CCc1cccc(OC)c1
 : -4	-16	8
[27] O=C(Nc1ccc2c(c1)OCCO2)C1c2ccccc2OCC(=O)N1CCc1ccccc1 (stereo not given)
 : 2	4	-34
[28] NC(N)=NN=Cc1ccnc2ccccc12
 : 1	2	27
[29] COc1ccc([C@H]2CC(=O)C[C@@H](CCn3cc(-c4ccccn4)nn3)O2)cc1
 : 0	4	2
[30] O=C1CCC[C@@H]2C=C[C@H](c3ccc(Br)cc3)[C@H]3CCN1[C@@H]32
 : 7	-15	12

A draw from above in order of formula weight, largest number first:
Values in the order: MT1-MMP act inh	MT1-MMP act inh RFP	Env fusion inh
[2] CCCCC[C@@H](C)N1C[C@@H](COCc2ccccc2)Oc2cc(N3CCC[C@@H]3CO)ccc2S1(=O)=O
 : -2	-10	18
[20] CCC(C)c1ccccc1N1CC(C(=O)N2CCN(S(=O)(=O)c3cccc([N+](=O)[O-])c3)CC2)CC1=O (stereo not given)
 : -1	-6	-7
[4] CCOC(=O)[C@]12CCC=C1N(Cc1ccco1)C(=O)[C@H](CC(=O)N1CCC(c3ccccc3)CC1)C2
 : 2	2	12
[27] O=C(Nc1ccc2c(c1)OCCO2)C1c2ccccc2OCC(=O)N1CCc1ccccc1 (stereo not given)
 : 2	4	-34
[7] O=C(NC(Cc1c[nH]c2ccccc12)C(=O)O)OCC1c2ccccc2-c2ccccc21 (stereo not given)
 : 2	6	16
[5] Cc1ccc(Cn2cc(CN3CC(N4CCSCC4)CS3(=O)=O)nn2)cc1 (stereo not given)
 : 2	1	0

Next structures follow.
Values in the order: MT1-MMP act inh	MT1-MMP act inh RFP	Env fusion inh
[31] CC1(C)NC(=O)N(CC(=O)OCC(=O)c2ccc(Br)s2)C1=O
 : -1	4	26
[32] CCC(c1nnnn1-c1ccc2c(c1)OCCO2)N1CCN(c2ccc(C(F)(F)F)cn2)CC1 (stereo not given)
 : -3	-19	16
[33] CCCCNC(=O)C1(C)CCN1C(=O)c1ccc2c(c1)C(C)(C)CCC2(C)C (stereo not given)
 : 1	-3	24
[34] COCC1CCCCN1C(=O)c1cc(COc2ccc(C)c(C)c2)on1 (stereo not given)
 : 4	0	-35
[35] COC(=O)C[C@H]1C=C[C@@H](NC(=O)Nc2c(C)noc2C)[C@@H](CO)O1
 : 2	9	?
[36] O=C(NC1CCCC1)C1c2ccccc2OCC(=O)N1CCCN1CCOCC1 (stereo not given)
 : 5	4	-4
[37] COc1ccc(C(C(=O)NC(C)(C)C)n2c(-c3ccc(=O)[nH]c3)nc3ccccc32)cc1 (stereo not given)
 : -7	-19	-19
[38] COc1ccc(NC(=O)C[C@H]2C(=O)N(CCc3ccccc3)C[C@@H]2C)cc1
 : 1	2	-4
[39] Cn1c(N)c(C(=O)CSc2n[nH]c(N)n2)c(=O)n(C)c1=O
 : 3	1	i
[40] O=C1NC[C@H](Cc2ccc(O)cc2)N(C[C@@H]2CCCN2C[C@H](Cc2ccccc2)N2C[C@H](Cc3ccc(O)cc3)N(CCc3ccccc3)C(=O)C2=O)C1=O
 : 0	2	34
[41] COc1ccc2c(c1)/C(=C/c1cc(OC)c(OC)c(OC)c1)C(=O)N2
 : 7	-25	16
[42] O=C1NC(c2cccc3ccccc23)Nc2ccc(Cl)cc21 (stereo not given)
 : 17	-8	18
[43] COc1cccc2c1C1COC3C4CC(C(=O)O)C(C(C2)N13)N4C (stereo not given)
 : -4	-2	23
[44] CCCCCCCCN1C(=O)[C@H](CC(=O)NCCC(C)C)C[C@@]2(C(=O)OCC)CCCC=C12
 : -6	-14	61*
[45] O=C1NC[C@H](CCCCN2CCN(Cc3ccccc3)C(=O)C2=O)N(CCC2CCCCC2)C1=O
 : 3	4	13

Excerpt, compounds 1–4
Values in the order: MT1-MMP act inh	MT1-MMP act inh RFP	Env fusion inh
[1] CCOc1ccc(C=NNC(=O)c2cccc3ccccc23)cc1OCC
 : 7	-12	9
[2] CCCCC[C@@H](C)N1C[C@@H](COCc2ccccc2)Oc2cc(N3CCC[C@@H]3CO)ccc2S1(=O)=O
 : -2	-10	18
[3] COc1ccc(CCNC(=O)Cc2cc3c(cc2[N+](=O)[O-])OCO3)cc1OC
 : 2	-5	-10
[4] CCOC(=O)[C@]12CCC=C1N(Cc1ccco1)C(=O)[C@H](CC(=O)N1CCC(c3ccccc3)CC1)C2
 : 2	2	12

(list continues)
Values in the order: MT1-MMP act inh	MT1-MMP act inh RFP	Env fusion inh
[46] COc1cccc(CNC(=O)[C@@H]2CCCN2C(=O)[C@@H]2CCCN2S(=O)(=O)c2ccc(OC)c(C)c2)c1
 : 4	3	9
[47] COc1cccc(/C=C2/CCC(CN(C)C)C2=O)c1 (stereo not given)
 : -1	5	-60
[48] C#CC(c1ccccc1)(c1ccccc1)n1ccnc1
 : 2	3	11
[49] Cc1c(-c2ccccc2)c(-c2ccc(OCCN(C)C)cc2)n2ccccc12
 : -7	3	-32
[50] C1=C(c2cn(-c3nc4ccccc4s3)nn2)CCCC1
 : -4	-3	-123
[51] CCCCN(C(=O)C1CCN(C(=O)c2ccccc2C)CC1)c1c(N)n(CCC)c(=O)[nH]c1=O
 : -5	0	9
[52] O=C1Nc2ccccc2-c2nnnn2C1N1CCCCC1 (stereo not given)
 : 2	5	-2
[53] CC(=O)Nc1cc2c3c(cccc3c1)-c1ccccc1-2
 : -148	-14	-60
[54] CCC(C(=O)NC1CCCC1)n1c(-c2ccccn2)nc2ccccc21 (stereo not given)
 : -5	0	-23
[55] CC(C)N1C(=O)c2ccccc2NC(=O)C1C(=O)NC1CC1 (stereo not given)
 : 1	7	18
[56] CC(=O)N1Cc2cc(C(=O)NCC(F)(F)F)nc(-c3cccc(-c4cc5ccccc5o4)c3)c2[C@@H]1CCO
 : 2	-2	-17
[57] CCCS(=O)(=O)NC(=O)C1(C)CCN1C(=O)Cc1ccc(-c2ccccc2)cc1 (stereo not given)
 : 2	6	-367
[58] C/C=C/c1cccc(-c2nc(C(=O)N3CCN(C)CC3)cc3c2[C@@H](CCO)N(C(=O)NC(C)C)C3)c1
 : 2	4	23
[59] CCCCn1nnnc1C1(C)CCC(=O)N1CCc1ccc(O)cc1 (stereo not given)
 : 4	2	4
[60] CCCCNC(=O)c1nc(-c2cccnc2)oc1-c1ccc(OC(F)(F)F)cc1
 : 5	-5	1

Along the list, quoted from above.
Nos. 55 to 59 in MT1-MMP act inh RFP, in turn: 7, -2, 6, 4, 2
Nos. 55 to 59 in MT1-MMP act inh, in turn: 1, 2, 2, 2, 4

Carrying on.
Values in the order: MT1-MMP act inh	MT1-MMP act inh RFP	Env fusion inh
[61] C[C@@H]1COc2cccc(N(C)CCO)c2S(=O)(=O)N1
 : 4	5	-5
[62] COc1ccc([C@H]2CC(=O)C[C@@H](CCn3cc(Cc4ccccc4)nn3)O2)cc1
 : 0	1	4
[63] COc1cc2c(cc1OC)CN(C(C)C(=O)Nc1cccc(S(=O)(=O)N3CCOCC3)c1)CC2 (stereo not given)
 : -2	0	-112
[64] CN(Cc1ccccc1F)C(=O)CN1C(=O)NC2(CCc3ccccc32)C1=O (stereo not given)
 : -2	-1	i
[65] Cc1cccc(C)c1NC(=O)C(c1ccccc1OC(F)(F)F)N1CCC(c2ccccc2)CC1 (stereo not given)
 : -20	-19	26
[66] O=S1(=O)CC(N2CCCCC2)CN1Cc1cn(Cc2cccc(C(F)(F)F)c2)nn1 (stereo not given)
 : 1	0	8
[67] COCCNc1nc(-c2ccc(OC)cc2C)c2sc(-c3ccccc3)cc2n1
 : -13	-17	-1
[68] CCCCCNC(=O)C(c1ccccc1F)n1c(=O)c(-c2ccco2)nc2ccccc21 (stereo not given)
 : -1	5	15
[69] CCCCC[C@H](C)N1C[C@H](COCc2ccccc2)Oc2cc(N3CCC[C@H]3C(N)=O)ccc2S1(=O)=O
 : -5	-9	44
[70] COC(=O)C[C@@H]1CC[C@@H](NS(=O)(=O)c2ccccc2OC)[C@@H](CO)O1
 : -3	3	-16
[71] COc1ccc(CN2C(=O)CSCC2(C)C(=O)Nc2ccc3c(c2)OCCO3)cc1 (stereo not given)
 : 2	1	-21
[72] CC(=O)Nc1ccc(CCNC(=O)c2ccc3ccccc3c2O)cc1
 : 11	5	26
[73] CCCCn1nnnc1C1(C)CCC(=O)N1Cc1cccc(F)c1 (stereo not given)
 : 3	6	4
[74] CCN(C(=O)COC(=O)/C=C/c1ccc(F)cc1)C1CCCCC1
 : -2	2	-7
[75] O=C(/C=C1\OCc2cc(OCc3ccccc3)ccc21)OCc1ccccc1
 : -1	-5	-20
[76] CCOC(=O)[C@]12Cc3c(cc(OC)c(OC)c3OC)[C@H]1N(CCC(=O)OC)C(=O)c1cc(OC)ccc12
 : 1	-9	-3
[77] CC1C(c2ccccc2)OCCN1C(=S)NC(=O)c1ccccc1 (stereo not given)
 : 3	-2	-3
[78] CCOC(=O)/C=C/c1cccc(OC)c1O
 : 1	3	-63
[79] CC(=O)Nc1c(Cl)c(Cl)c2c(c1Cl)Cc1cc(Cl)ccc1-2
 : -2	0	-222
[80] COc1ccc(NC(=O)C(c2ccccc2F)n2c(=O)c(-c3cc4ccccc4[nH]3)nc3ccccc32)cc1 (stereo not given)
 : -1	-1	-24
[81] O=S(=O)(Nc1ccc(-n2cnnn2)cc1)c1ccc(Cl)s1
 : -1	-1	-15
[82] Cc1cccc(N=NC(=S)NNc2cccc(C)c2)c1
 : 2	3	-63
[83] COc1ccc(OC)c(CN2C(=O)CN(S(C)(=O)=O)CC2(C)C(=O)NCc2ccccc2)c1 (stereo not given)
 : 0	5	19
[84] COCCNC(=O)C1(C)CCCN(Cc2cc(C(F)(F)F)ccc2Cl)C1 (stereo not given)
 : 5	2	10
[85] O=S1(=O)N[C@H](Cc2ccccc2)COc2cc(N3CCSCC3)ccc21
 : 7	-2	-48
[86] CCOC(=O)[C@]12CCCC=C1N(Cc1cccc3ccccc13)C(=O)[C@H](CC(=O)NCc1ccc(C)o1)C2
 : 4	-9	-2
[87] Oc1ccccc1C=NN1CCCCCC1
 : 2	-3	-49
